# FGF22 binding: shifts melting point of recombinant human FGF22; Q9HCT0; recombinant FGF22 thermal shift, SYPRO orange fluorescence; percent of sucrose octasulfate shift, DMSO zero; calls only at 9.99 µM; 340,000 compounds, 1.5% hits; AID 651658;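 active = melting point raised past a set limit in the mean and every replicate; three in four hits are not shown here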
# Target sequence (Q9HCT0 whole entry, looked up): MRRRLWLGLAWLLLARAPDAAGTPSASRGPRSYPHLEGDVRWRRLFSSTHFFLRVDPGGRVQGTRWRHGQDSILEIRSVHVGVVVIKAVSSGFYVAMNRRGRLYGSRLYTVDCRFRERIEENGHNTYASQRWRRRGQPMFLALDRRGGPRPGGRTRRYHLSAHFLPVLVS
# Calls only; i = inactive.
structure	FGF22 binding
O=C1O[C@@H](c2ccccc2)[C@@H](c2ccccc2)N2[C@@H](c3ccccc3OCCO)[C@]3(C(=O)Nc4ccc(C#CCCO)cc43)[C@@H](C(=O)N3CCCCCCC3)[C@H]12	i
C[C@@H]1CN([C@@H](C)CO)C(=O)c2cc(NC(=O)CCC(F)(F)F)ccc2O[C@@H](C)CCCCO[C@@H]1CN(C)C(=O)NC1CCCCC1	i
COC(=O)[C@]12C[C@H](CC(=O)NCC34CC5CC(CC(C5)C3)C4)C(=O)N(Cc3ccc4c(c3)OCO4)C1=C[C@H](COCc1ccccc1)O[C@@H]2C	i
C[C@H]1CCCCO[C@@H](CN(C)Cc2ccccc2)[C@@H](C)CN([C@@H](C)CO)C(=O)c2cc(NC(=O)Cc3ccccc3)ccc2O1	i
CCCc1cn(CC[C@H]2CC[C@H](NC(=O)C3CCCC3)[C@H](CO)O2)nn1	i
C[C@@H]1CN([C@@H](C)CO)C(=O)c2cccc(NC(=O)Nc3ccc(F)cc3)c2O[C@@H]1CN(C)Cc1ccc2c(c1)OCO2	i
C[C@H](CO)N1C[C@H](C)[C@@H](CN(C)Cc2ccccc2F)Oc2ncc(/C=C/c3ccccc3)cc2C1=O	i
C[C@@H]1CN([C@H](C)CO)C(=O)c2cccc(NS(=O)(=O)c3ccc(Cl)cc3)c2O[C@@H]1CN(C)C(=O)Nc1ccccc1	i
C[C@H](CO)N1C[C@H](C)[C@H](CN(C)C(=O)Nc2ccc(F)cc2)Oc2ccc(NC(=O)Cc3ccccc3)cc2C1=O	i
C[C@@H]1CCCCO[C@H](CN(C)C(=O)NC2CCCCC2)[C@H](C)CN([C@@H](C)CO)C(=O)c2cc(NC(=O)Nc3cccc4ccccc34)ccc2O1	i
C[C@H](CO)N1C[C@H](C)[C@@H](CN(C)Cc2ccc(C(=O)Nc3ccccc3N)cc2)OCc2cnnn2CCCC1=O	i
CO[C@H]1CN(C)C(=O)c2cc(NC(=O)C3CC3)ccc2OC[C@H](C)N(C(C)=O)C[C@H]1C	i
CCCNC(=O)N(C)C[C@H]1Oc2ncc(C#C[C@@H](C)O)cc2C(=O)N([C@H](C)CO)C[C@@H]1C	i
O=C(c1ccncc1)N1CC[C@@H]2[C@H](CO)Nc3ccc(-c4ccccc4)cc3[C@@H]21	i
O=C(CC(F)(F)F)N1C[C@@H]2[C@H](c3ccccc31)[C@H](CO)N2C(=O)CN1CCOCC1	i
O=C(C[C@H]1CC[C@H]2[C@@H](COC[C@@H](O)CN2C(=O)Cc2ccccc2)O1)NC1CCCC1	i
CC=Cc1ccc2n(c1=O)C[C@@H]1[C@@H](CO)[C@H](C(=O)NCCC)N(Cc3cccc(F)c3)[C@H]21 (mixture of isomers)	i
CC(C)NC(=O)Nc1ccc2c(c1)C(=O)N([C@@H](C)CO)C[C@@H](C)[C@H](CN(C)Cc1ccc(C(F)(F)F)cc1)O2	i
Cc1ccccc1S(=O)(=O)N1C[C@@H]2[C@H](c3ccccc31)[C@@H](CO)N2C(=O)CC1CC1	i
O=C1O[C@H](c2ccccc2)[C@H](c2ccccc2)N2[C@H]1[C@@H](C(=O)N1CCCCCCC1)[C@]1(C(=O)Nc3ccc(C#CC4=CCCCC4)cc31)[C@H]2c1ccc(O)cc1	i
C[C@H]1CCCCO[C@@H](CN(C)C(=O)Nc2ccc(F)cc2)[C@@H](C)CN([C@@H](C)CO)C(=O)c2cc(NC(=O)c3ccccc3)ccc2O1	i
CCCN(C)C[C@H]1OCCCC[C@H](C)Oc2ccc(NC(=O)Cc3ccccc3)cc2C(=O)N([C@H](C)CO)C[C@H]1C	i
COc1ccc(CN(C)C[C@@H]2OCCCC[C@@H](C)Oc3ccc(NC(=O)Nc4ccc(C(F)(F)F)cc4)cc3C(=O)N([C@H](C)CO)C[C@@H]2C)cc1	i
CCCN1[C@H](C(=O)NCC)[C@@H](CO)[C@@H]2Cn3c(ccc(C4=CCCC4)c3=O)[C@@H]21	i
C[C@@H]1CN([C@H](C)CO)C(=O)c2cccc(NC(=O)Nc3ccc(F)cc3)c2O[C@@H]1CN(C)C(=O)NC1CCCCC1	i
C[C@@H]1CN([C@H](C)CO)C(=O)c2cc(C#CC3CC3)cnc2O[C@H]1CN(C)C(=O)Nc1ccc(F)cc1	i
O=C(C[C@@H]1C[C@H]2c3cc(NC(=O)Nc4ccccc4)ccc3O[C@H]2[C@@H](CO)O1)NCCN1CCCCC1	i
CN(C)CC#Cc1ccc([C@H]2[C@@H](CO)N3CCCCN(C(=O)CN(C)C)C[C@@H]23)cc1	i
O=C(Nc1ccccc1)N1C[C@H]2[C@@H](c3ccccc31)[C@H](CO)N2Cc1ccccc1Cl	i
CCCC(=O)Nc1ccc2c(c1)OC[C@@H](C)N(Cc1ccccc1F)C[C@@H](C)[C@H](OC)CN(C)C2=O	i
CCCC(=O)N1CCC2(CC1)CN(S(C)(=O)=O)[C@H](CO)c1c2c2ccc(OC)cc2n1C	i
CCCNC(=O)Nc1ccc2c(c1)C(=O)N(C)[C@H]1CC[C@H](CC(=O)O)O[C@@H]1CO2	i
Cc1ccc(S(=O)(=O)N(C)C[C@H]2OCCCC[C@@H](C)Oc3ccc(NC(=O)Nc4c(C)noc4C)cc3C(=O)N([C@@H](C)CO)C[C@H]2C)cc1	i
C[C@@H]1CN([C@H](C)CO)S(=O)(=O)c2ccc(C#CCC3CCCC3)cc2O[C@H]1CN(C)C	i
CN1CCN(C(=O)C[C@@H]2CC[C@@H]3[C@H](COC[C@@H](O)CN3C(=O)C3CCCC3)O2)CC1	i
C[C@@H]1CCCCO[C@H](CN(C)S(=O)(=O)c2cccs2)[C@H](C)CN([C@@H](C)CO)C(=O)c2cc(NC(=O)CCCN(C)C)ccc2O1	i
CC(C)NC(=O)N(C)C[C@H]1Oc2cc(C#CC3CC3)ccc2S(=O)(=O)N([C@H](C)CO)C[C@H]1C	i
C[C@@H]1CCCCO[C@@H](CN(C)Cc2ccc(Cl)c(Cl)c2)[C@H](C)CN([C@@H](C)CO)C(=O)c2cc(NC(=O)Nc3ccc(C(F)(F)F)cc3)ccc2O1	i
CN1CCN(C(=O)C[C@H]2CC[C@@H]3[C@H](COC[C@H](O)CN3C(=O)c3ccc(F)cc3)O2)CC1	i
CN(C)C(=O)C[C@@H]1CC[C@@H]2[C@H](COC[C@H](O)CN2CC2CCCCC2)O1	i
C[C@H](O)[C@@H]1C(=O)N2CCc3c([nH]c4c(-c5ccccc5)cccc34)[C@@H]2C[C@@H]1N(C)C(=O)OCc1ccccc1	i
C[C@@H]1CN([C@@H](C)CO)C(=O)c2cc(NC(=O)Nc3ccccc3)ccc2O[C@@H](C)CCCCO[C@@H]1CN(C)C(=O)Nc1cccc2ccccc12	i
Cc1noc(C)c1NC(=O)N(C)C[C@H]1Oc2ccc(NC(=O)Cn3cnnn3)cc2C(=O)N([C@@H](C)CO)C[C@@H]1C	i
O=C(N[C@@H]1CC[C@@H](CCn2cc(C3(O)CCCC3)nn2)O[C@H]1CO)C1CCC1	i
COc1ccc(NC(=O)N(C)C[C@H]2Oc3ncc(-c4cccnc4)cc3C(=O)N([C@H](C)CO)C[C@H]2C)cc1	i
CCCC(=O)Nc1ccc2c(c1)C(=O)N(C)[C@@H]1CC[C@@H](CC(=O)NCC3CC3)O[C@H]1CO2	i
CCN1[C@H](C(=O)OC)[C@@H](CO)[C@@H]2Cn3c(ccc(-c4cccc(C(=O)N(C)C)c4)c3=O)[C@@H]21	i
O=C(C[C@@H]1C[C@H]2c3cc(NC(=O)C4CCC4)ccc3O[C@H]2[C@H](CO)O1)NCCc1ccccc1	i
COc1ccc(-c2ccc([C@@H]3[C@@H](C#N)N(C(=O)NC4CCCC4)[C@H]3CO)cc2)cc1	i
COc1cccc(C(=O)Nc2ccc3c(c2)C(=O)N(C)C[C@@H](OC)[C@H](C)CN(C(=O)C2CCCC2)[C@H](C)CO3)c1	i

# 4 neighbouring records out of the list so far:
structure	FGF22 binding
O=C1O[C@@H](c2ccccc2)[C@@H](c2ccccc2)N2[C@@H](c3ccccc3OCCO)[C@]3(C(=O)Nc4ccc(C#CCCO)cc43)[C@@H](C(=O)N3CCCCCCC3)[C@H]12	i
C[C@@H]1CN([C@@H](C)CO)C(=O)c2cc(NC(=O)CCC(F)(F)F)ccc2O[C@@H](C)CCCCO[C@@H]1CN(C)C(=O)NC1CCCCC1	i
COC(=O)[C@]12C[C@H](CC(=O)NCC34CC5CC(CC(C5)C3)C4)C(=O)N(Cc3ccc4c(c3)OCO4)C1=C[C@H](COCc1ccccc1)O[C@@H]2C	i
C[C@H]1CCCCO[C@@H](CN(C)Cc2ccccc2)[C@@H](C)CN([C@@H](C)CO)C(=O)c2cc(NC(=O)Cc3ccccc3)ccc2O1	i

# Next section
structure	FGF22 binding
CO[C@@H]1CN(C)C(=O)c2cc(NC(=O)c3ccc(Oc4ccccc4)cc3)ccc2OC[C@H](C)NC[C@H]1C	i
COc1ccc(S(=O)(=O)Nc2cccc3c2O[C@H](CN(C)Cc2ccc(C(=O)Nc4ccccc4N)cc2)[C@H](C)CN([C@@H](C)CO)C3=O)cc1	i
COCC(=O)N(C)C[C@@H]1Oc2cc(-c3cccnc3)ccc2S(=O)(=O)N([C@H](C)CO)C[C@@H]1C	i
CCCC(O)C#Cc1cnc2c(c1)C(=O)N([C@H](C)CO)C[C@H](C)[C@H](CN(C)C(=O)NC(C)C)O2 (stereo partly drawn)	i
CN(C)CC(=O)Nc1ccc2c(c1)[C@@H]1C[C@H](CC(=O)N3CCOCC3)O[C@H](CO)[C@@H]1O2	i
O=C(Nc1ccccc1F)N[C@H]1C=C[C@H](CC(=O)N2CCCCC2)O[C@H]1CO	i
Cc1ccc(S(=O)(=O)N(C)C[C@H]2OCCCC[C@@H](C)Oc3ccc(NC(=O)Nc4c(C)noc4C)cc3C(=O)N([C@H](C)CO)C[C@@H]2C)cc1	i
C[C@H](CO)N1C[C@H](C)[C@H](CN(C)Cc2ccccc2)Oc2cc(C3=CCCC3)ccc2S1(=O)=O	i
C[C@H]1CN([C@@H](C)CO)S(=O)(=O)c2ccc(C#CC(C)(C)O)cc2O[C@@H]1CN(C)C(=O)CN(C)C	i
COc1ccc(NC(=O)Nc2ccc3c(c2)C(=O)N([C@@H](C)CO)C[C@@H](C)[C@H](CN(C)Cc2ccc4c(c2)OCO4)O3)cc1	i

# A different layout for part of the listing above:
structure: O=C(Nc1ccccc1F)N[C@H]1C=C[C@H](CC(=O)N2CCCCC2)O[C@H]1CO
  FGF22 binding: i
structure: Cc1ccc(S(=O)(=O)N(C)C[C@H]2OCCCC[C@@H](C)Oc3ccc(NC(=O)Nc4c(C)noc4C)cc3C(=O)N([C@H](C)CO)C[C@@H]2C)cc1
  FGF22 binding: i
structure: C[C@H](CO)N1C[C@H](C)[C@H](CN(C)Cc2ccccc2)Oc2cc(C3=CCCC3)ccc2S1(=O)=O
  FGF22 binding: i
structure: C[C@H]1CN([C@@H](C)CO)S(=O)(=O)c2ccc(C#CC(C)(C)O)cc2O[C@@H]1CN(C)C(=O)CN(C)C
  FGF22 binding: i

# Further records.
structure	FGF22 binding
CC(C)NC(=O)Nc1ccc2c(c1)C(=O)N([C@@H](C)CO)C[C@@H](C)[C@H](CN(C)C(=O)Nc1cccc3ccccc13)OCCCC[C@H](C)O2	i
CCCNC(=O)N1CC2(CN(Cc3ccc(OC)cc3)C2)c2c(n(C)c3cc(OC)ccc23)[C@H]1CO	i
C[C@@H]1CCCCO[C@H](CN(C)C(=O)c2ccccc2)[C@@H](C)CN([C@@H](C)CO)C(=O)c2cc(NC(=O)Nc3ccccc3)ccc2O1	i
C[C@@H]1CN([C@@H](C)CO)C(=O)c2ccccc2-c2ccccc2CO[C@H]1CN(C)C(=O)N[C@H](C)c1ccccc1	i
C[C@H](O)C#Cc1ccc2c(c1)O[C@H](CN(C)Cc1ccc(-c3ccccc3)cc1)[C@@H](C)CN([C@@H](C)CO)S2(=O)=O	i
O=C(O)C[C@H]1C[C@@H]2c3cc(NS(=O)(=O)c4ccc(F)cc4)ccc3O[C@@H]2[C@@H](CO)O1	i
COCC#Cc1ccc2c(c1)O[C@H](CN(C)C(=O)CN(C)C)[C@@H](C)CN([C@@H](C)CO)S2(=O)=O	i
C[C@@H]1CN([C@@H](C)CO)C(=O)c2cc(NC(=O)C3CC3)ccc2O[C@H]1CN(C)Cc1ccc(C(=O)O)cc1	i
CCC(=O)N1CCC2(CC1)CN(C(=O)Cc1ccccc1)[C@H](CO)c1c2c2ccc(OC)cc2n1C	i
C[C@H]1CCCCO[C@H](CN(C)C(=O)Nc2ccc(C(F)(F)F)cc2)[C@@H](C)CN([C@@H](C)CO)C(=O)c2cc(NC(=O)Nc3ccc4c(c3)OCO4)ccc2O1	i
COc1ccccc1-c1ccccc1[C@@H]1[C@@H](C#N)N(C(=O)C2CC2)[C@H]1CO	i
O=C(C[C@H]1CC[C@@H]2[C@H](COC[C@@H](O)CN2Cc2cccc(C(F)(F)F)c2)O1)NCc1ccccc1	i
COc1ccc(S(=O)(=O)N2CC[C@@H]3[C@@H](CO)N(C)c4ccc(-c5ccccc5F)cc4[C@@H]32)cc1	i
C[C@@H]1CN([C@H](C)CO)C(=O)c2cc(NC(=O)C3CCCCC3)ccc2O[C@H]1CN(C)Cc1ccccc1	i
CCC(=O)N(C)C[C@@H]1Oc2cc(-c3cccc(C#N)c3)ccc2S(=O)(=O)N([C@H](C)CO)C[C@@H]1C	i
CN(C)CC(=O)Nc1ccc2c(c1)[C@@H]1C[C@H](CC(=O)N3CCCCC3)O[C@H](CO)[C@@H]1O2	i
C[C@H]1CCCCO[C@@H](CN(C)Cc2ccncc2)[C@@H](C)CN([C@@H](C)CO)C(=O)c2cc(NC(=O)Nc3ccc(F)cc3)ccc2O1	i
C[C@H](CO)N1C[C@H](C)[C@H](CN(C)Cc2cccc(C(=O)O)c2)OCc2cn(nn2)CCCC1=O	i
CCC(=O)N[C@H]1CC[C@H](CC(=O)NCc2ccccc2OC)O[C@H]1CO	i
C[C@@H]1CN([C@@H](C)CO)C(=O)c2cc(NC(=O)C3CCCCC3)ccc2O[C@@H]1CN(C)C(=O)Nc1cccc2ccccc12	i

# Screening data from PubChem BioAssay.

# These rows are one share of the data. The share of hits here may be higher or lower than overall.
